VACV Venus inh: vaccinia inhibition (Venus reporter). Potency, µM (titrated, usually from 36.5 µM), for the others: at the highest dose activity change, negative = inhibition, most hits filed as inhibitors. Vaccinia virus Venus reporter expression, fluorescence. 0.46% of 330,000 active; active means well fitted inhibition curve with a large enough effect; inconclusive means small, poorly fitted or top-dose-only effect; inactive means no such curve, though single readings can be large or run the other way; tested in A549 cells; note: nearly all actives have a fitted effect of over 30% in size; inactives centre near -10
VACV mCherry inh: inhibitors of vaccinia virus infection (mCherry reporter signal); Vaccinia virus mCherry reporter infection, fluorescence; about a quarter of the inactives have no number; Potency, µM (doses to about 36.5 µM), for inactives: at the top dose activity change, negative = inhibition, usual class: inhibitors; 0.63% of 310,000 active; active = well fitted inhibition curve with a large enough effect; inconclusive = small, poorly fitted or top-dose-only effect; inactive = no such curve, though single readings can be large or run the other way; tested in A549 cells; note: nearly all actives have a fitted effect of over 35% in size; inactives centre near -10
The depositor's hits bear a star; i = inactive; ? = inconclusive; . = no result given; & = joins results of further samples. % is set by controls: 0 for no effect and ±100 for the full control effect; potency is the fitted concentration of half-maximal effect.

Sequence of screens – VACV Venus inh	VACV mCherry inh
COC(=O)c1ccc2nc(-c3ccc(OC)c(OC)c3)c(Cc3ccc(C)cc3)n2c1
→ -4%	13%
CC(=O)Nc1ccc(S(=O)(=O)Nc2ccc(NC(=O)c3ccco3)cc2)cc1
→ -1%	-13%
COc1ccc(C(=O)C[C@@H]2OC3CCCCC3N2S(=O)(=O)c2ccc(C)cc2)cc1OC (stereo partly specified)
→ -18%	-23%
Cn1ncc(Cl)c1C(=O)N/N=C/c1cccc(OC2CSC2)c1
→ -10%	2%
Cc1ccc(NC(=O)CN2C(=O)C3CC=C(Cl)CC3C2=O)cc1 (stereo unspecified)
→ -4%	-10%
COc1cc(OC)nc(Oc2cccc(C(F)(F)F)c2)n1
→ -4%	-5%
Cc1cc(C)nc(-n2nc(C)c3c2NC(=O)CC3c2cc(F)ccc2F)n1 (stereo unspecified)
→ -15%	-6%
Nc1nc(-c2ccc3c(c2)OCCO3)c(CC(=O)O)s1
→ -4%	-11%
COc1ccccc1NC(=O)COc1ccc(-c2nn(C)c(=O)c3ccccc23)cc1
→ ?	?
CC(=O)c1cccc(NC(=O)c2ccc(-n3cncn3)c3ccoc23)c1
→ -3%	22%
O=C(c1ccc(F)cc1)N1CCC(C(=O)N2CCN(c3ncccn3)CC2)CC1
→ -8%	i
CCS(=O)(=O)c1ncc(N(Cc2ccccc2)Cc2ccco2)c(C(=O)Nc2ccc(C)c(C)c2)n1
→ -6%	-13%
CC(C)CCNC(=O)CN1C(=O)c2cccnc2Oc2ccccc21
→ -12%	-5%
CN1CCN(c2ccccc2NC(=O)c2ccc(-c3ccc(Br)cc3)o2)CC1
→ -9%	-3%
CC(NC(=O)CN1C(=O)c2cccnc2Oc2ccc(Cl)cc21)c1ccccc1 (stereo unspecified)
→ 3%	-6%
O=C1C(C=Nc2ccccc2)=C(O)c2ccccc21
→ 7%	-12%
CCOC(=O)C1=C(CN2CCN(c3ccc(Cl)cc3)CC2)NC(=O)NC1c1ccc(OC)cc1 (stereo unspecified)
→ ?	-29%
N#Cc1cccc(C2CC(OCCF)=CC(=O)O2)c1 (stereo unspecified)
→ -1%	6%
C#CCOCCOCCOCCNc1nc(N2CCN(C(=O)Cn3cc(CCCCN)nn3)CC2)nc(N2CCN(C(=O)[C@H]([C@@H](C)CC)n3cc(CCCN=C(N)N)nn3)CC2)n1
→ -11%	i
CC(C)=CCOc1ccc([C@@H]2COc3c(ccc4c3C=CC(C)(C)O4)C2)c(O)c1
→ -17%	-23%

In the list so far, these contain a Cl atom.
Sequence of screens – VACV Venus inh	VACV mCherry inh
Cn1ncc(Cl)c1C(=O)N/N=C/c1cccc(OC2CSC2)c1
→ -10%	2%
Cc1ccc(NC(=O)CN2C(=O)C3CC=C(Cl)CC3C2=O)cc1 (stereo unspecified)
→ -4%	-10%
CC(NC(=O)CN1C(=O)c2cccnc2Oc2ccc(Cl)cc21)c1ccccc1 (stereo unspecified)
→ 3%	-6%
CCOC(=O)C1=C(CN2CCN(c3ccc(Cl)cc3)CC2)NC(=O)NC1c1ccc(OC)cc1 (stereo unspecified)
→ ?	-29%

The main list resumes, starting seven compounds before the break.
Sequence of screens – VACV Venus inh	VACV mCherry inh
CN1CCN(c2ccccc2NC(=O)c2ccc(-c3ccc(Br)cc3)o2)CC1
→ -9%	-3%
CC(NC(=O)CN1C(=O)c2cccnc2Oc2ccc(Cl)cc21)c1ccccc1 (stereo unspecified)
→ 3%	-6%
O=C1C(C=Nc2ccccc2)=C(O)c2ccccc21
→ 7%	-12%
CCOC(=O)C1=C(CN2CCN(c3ccc(Cl)cc3)CC2)NC(=O)NC1c1ccc(OC)cc1 (stereo unspecified)
→ ?	-29%
N#Cc1cccc(C2CC(OCCF)=CC(=O)O2)c1 (stereo unspecified)
→ -1%	6%
C#CCOCCOCCOCCNc1nc(N2CCN(C(=O)Cn3cc(CCCCN)nn3)CC2)nc(N2CCN(C(=O)[C@H]([C@@H](C)CC)n3cc(CCCN=C(N)N)nn3)CC2)n1
→ -11%	i
CC(C)=CCOc1ccc([C@@H]2COc3c(ccc4c3C=CC(C)(C)O4)C2)c(O)c1
→ -17%	-23%
COc1ccc(-c2c(C)nn3c(N4CCN(Cc5ccccc5)CC4)cc(C)nc23)cc1OC
→ ?	?
CCOc1ccc(CCNC(=O)CN2C(=O)C(CC)Oc3ccccc32)cc1OCC (stereo unspecified)
→ -6%	-12%
COc1ccc(S(=O)(=O)N[C@H](C(=O)N2CC[C@@]3(O)CCCC[C@H]3C2)c2ccccc2)cc1
→ -15%	.
CCC(=O)OC1C2CC3=C4CC(=O)OC(c5ccoc5)[C@]4(C)CCC3[C@@](C)(C2=O)C(CC(=O)OC)C1(C)C (stereo partly specified)
→ -9%	-3%
Cc1ccccc1CSc1nc2nc(C)c(Cc3ccccc3)c(C)n2n1
→ -10%	-9%
Cn1c(SCC(=O)NC2CC2)nnc1-c1ccccc1
→ -13%	-13%
CC(C)C[C@H](NC(=O)c1cc2cc(Cl)ccc2n1C)C(=O)N1CCC[C@H]1C(=O)O
→ -3%	-13%
CCCC[C@@H]1CCCO[C@@](C(=O)NCc2cc(C)n(C)n2)(C(F)(F)F)C1
→ -17%	i
COc1ccc(S(=O)(=O)N(CC(=O)Nc2ccc(S(=O)(=O)N3CCOCC3)cc2)c2ccccc2)cc1
→ -17%	-6%
Cc1cc(C)c(S(=O)(=O)c2ccccc2)c(OC(=O)c2cc(F)c(F)cc2Cl)n1
→ ?	-15%
Fc1ccc(NCc2nnc(SCc3nnc(-c4ccccc4)o3)n2Cc2ccccc2)cc1
→ -13%	-27%
C=CC[C@@H](Cc1ccc(F)cc1)C(=O)OC[C@@H]1CCCN1C(=O)[C@H](CC=C)CC(=O)N[C@H](CO)Cc1ccccc1
→ -22%	-9%
CCOc1cc(C(=O)Nc2ccc(S(=O)(=O)Nc3cc(OC)nc(OC)n3)cc2)cc(OCC)c1OCC
→ 10%	6%
CN(C)c1nc(C(F)(F)F)cc(=O)[nH]1
→ -3%	i
CCOC(=O)C1=C(C)NC(=S)NC1C (stereo unspecified)
→ -8%	i
O=C1C(=O)c2c(C(=O)c3ccccc3)coc2-c2ccccc21
→ ?	?
CCCCCCCCC(=O)NNC(=O)c1c(O)c2ccccc2n(CCC)c1=O
→ -6%	0%
OC1CCCN(Cc2ccc3c(c2)Cc2ccccc2-3)C1 (stereo unspecified)
→ -16%	-2%
CN(C)CCCNC(=S)N1CCn2c(nc3ccccc32)C1
→ -8%	-18%
COc1cccc(C(=O)Nc2cc(C)on2)c1
→ -2%	i
CN(CC(=O)NCc1ccc(F)cc1)S(=O)(=O)c1ccc2[nH]c3c(c2c1)CCCC3
→ -6%	1%
COCCC(=O)N1CCC(Oc2ccc(C(=O)NCCc3ccccn3)cc2)CC1
→ -11%	0%
Cc1ccc(-c2csc3nc[nH]c(=S)c23)cc1C
→ -26%	-25%
CC(C)c1ccc(NC(=O)C(Cc2ccccc2)n2cccc2)cc1 (stereo unspecified)
→ -17%	-1%
CC1CN(S(=O)(=O)c2cccc(C(F)(F)F)c2)CN1C(=O)N1CCOCC1 (stereo unspecified)
→ -6%	13%
CC(CCN1CCN=C1Nc1ccccc1)c1ccccc1 (stereo unspecified)
→ -9%	-9%
Cc1ccc(C(=O)Nc2c(C(=O)NCc3ccc(Cl)cc3)sc3nc(C)cc(C)c23)cc1
→ -28%	-25%
CCOc1ccc(S(=O)(=O)N2CCCCC2)c2ccccc12
→ -18%	-2%
CCCNC(=O)c1cc2c(c(-c3cccc(-c4ccc(F)cc4)c3)n1)[C@H](CCO)N(S(=O)C(C)(C)C)C2 (stereo partly specified)
→ -25%	-18%
O=C(CCc1ccccc1)n1nc(-c2ccco2)nc1SCc1ccccc1
→ -1%	-7%
Cc1cc(/C=C2/SC(=O)N(CC(=O)N3CCCC3)C2=O)ccc1N1CCOCC1
→ -18%	i
CCOC(=O)c1ccccc1NC(=O)C1CC(=O)N(C2CCCC2)C1 (stereo unspecified)
→ -9%	-15%
CCOC(=O)C1CCCN(C(=O)c2ccc3c(c2)N(Cc2ccccc2)C(=O)c2ccccc2S3=O)C1 (stereo unspecified)
→ 13%&-9%	-4%&-15%
Cc1ccc(NC(=S)NNC(=S)Nc2cccc(C(F)(F)F)c2)cc1
→ -21%	-28%
NC(=O)COC(=O)c1sc2ccccc2c1Cl
→ -1%	-7%
COc1cccc(-c2csc(N3CCN(C(=S)Nc4ccccc4Cl)CC3)n2)c1
→ -15%	-22%
CCOC(=O)C1CCCN(C(=O)c2ccc(-c3ccccc3)cc2)CC1 (stereo unspecified)
→ -7%	4%
O=C(COC(=O)c1cc[n+]([O-])cc1)Nc1ccc(Cl)cc1[N+](=O)[O-]
→ 0%	-8%
CCOC(=O)c1ccc(NC(=O)CSc2nccn2C)cc1
→ -1%	-11%
COC(=O)CS(=O)(=O)c1nnc([C@H](Cc2ccccc2)NC(=O)OC(C)(C)C)o1
→ 3%	-23%

(listing goes on)
Compound	VACV Venus inh	VACV mCherry inh
COc1ccccc1CNC(=O)[C@H](C)N1C(=O)N2CCc3c([nH]c4ccccc34)[C@@]2(C)C1=O	-18%	-21%
OC(CN1CCOCC1)CN(c1ccccc1)c1ccccc1 (stereo unspecified)	-3%	-11%
CCOC(=O)N1CCC(NC(=O)c2cc(COc3ccc(F)cc3Cl)on2)CC1	-16%	i
COc1ccc(C(CC(=O)NCc2ccccc2)C(C)C)cc1 (stereo unspecified)	1%	i
CCCn1c(CCC(=O)Nc2cc(Cl)c(OC)cc2OC)nc2cccnc21	-8%	-5%
CCOc1ccc(NC(=O)CC2C(=O)N(C)C(=S)N2Cc2ccc3c(c2)OCO3)cc1 (stereo unspecified)	-20%	-1%
COc1cccc(N2CCN(C(=O)CCc3c(C)nc4c(c3C)c(=O)n(C)c(=O)n4C)CC2)c1	1%	-10%
CC(=O)c1cccc(NS(=O)(=O)c2ccc3[nH]c4c(c3c2)CCCCC4)c1	-30%	?
CCCCn1cnc2c(SCc3cccc(F)c3)nc(N)nc21	-2%	-3%
C/C(=C\C#N)n1nc(C)cc1N	-8%	i
COc1ccccc1CCNC(=O)Nc1cccc([N+](=O)[O-])c1	-9%	-2%
O=C(COC(=O)Cc1ccsc1)Nc1ccccc1	-6%	i
Cc1cccc(CN2CCN(C3CN(Cc4cn(Cc5cccc(Cl)c5)nn4)S(=O)(=O)C3)CC2)c1 (stereo unspecified)	-16%	9%
CC(C)(C)c1ccc(-c2cc(-c3ccccc3O)[nH]n2)cc1	?	-26%
CC1(c2ccc(Cl)cc2)NC(=O)N(CC(=O)N2CCN(C(=O)c3cccs3)CC2)C1=O (stereo unspecified)	-13%	-11%
CCCN(CCC)CCNC(=O)c1cc(-c2ccc(Br)s2)nc2ccccc12	-19%	-6%
COc1ccccc1C(=O)NCCC(=O)NCCc1ccccc1	-4%	-8%
COC(=O)Cc1ccc(NC(=S)NCc2ccccc2OC)cc1	-15%	-4%
O=C(CN1C(=O)NC2(CCOc3ccccc32)C1=O)Nc1ccc2c(c1)OCCO2 (stereo unspecified)	4%	-1%
CC(=O)C1(O)CCC2C3CCC4CC(=O)CCC4(C)C3C(=O)CC21C (stereo unspecified)	-9%	-19%
CC(=O)n1cc([C@H]2C=C(C(=O)Nc3ccccc3)O[C@@H](OCCCCO)C2)c2ccccc21	-19%	-21%
COc1ccccc1NC(=O)c1cc(OC)c(OC)cc1[N+](=O)[O-]	1%	3%
CC(=O)c1c(C)[nH]c(C(=O)OCC(=O)NCC(C)C)c1C	-16%	i
OC1(c2ccc(F)cc2)CCN(Cc2cccnc2)CC1	-9%	i
O=C1CC(NCc2ccccc2)C(=O)N1c1ccc(F)cc1 (stereo unspecified)	-4%	-18%
COc1cc(/C=N\NC(=O)Cn2nnc3ccccc32)cc(OC)c1OC	-11%	.
CC(C)C(=O)N1CCCC1(C)C(=O)Nc1cccc(Oc2ccccc2)c1 (stereo unspecified)	-2%	12%
CC(C)OCCCNC(=O)CCCn1c(SCC(=O)c2ccc(F)cc2)nc2c(sc3ccccc32)c1=O	-7%	-15%
Cc1cc(C=C2C(=O)c3ccccc3C2=O)c(C)n1-c1ccc(C(=O)O)cc1	3%	-10%
Cc1nn(-c2ccccc2)c(C)c1NC(=O)c1ccc(S(=O)(=O)N2CCCC2)cc1	-5%	-12%
CCN1CCC(C(=O)NC(c2ccc(F)cc2)c2ncccc2C)CC1 (stereo unspecified)	-16%	i
COc1ccc(-n2nc(C(=O)N(C)c3cc(C)ccc3C)c3c4ccccc4n(C)c3c2=O)cc1Cl	-5%	-12%
N#C/C(=C\c1c[nH]c2ccccc12)C(=O)NC1CC1	-10%	-11%
Cc1noc(C)c1S(=O)(=O)Nc1ccc(C(=O)N2CCCCC2)cc1	-5%	-20%
Cc1ccc(S(=O)(=O)NC(C(=O)Oc2ccc3c(C)c(Cl)c(=O)oc3c2)c2ccccc2)cc1 (stereo unspecified)	-6%	i
CC(C)NC(=O)C(Sc1ccccc1)c1ccccc1 (stereo unspecified)	-4%	-13%
COc1ccc(CN2C(=O)C(CC(=O)NCc3cccs3)CC(C(=O)N(C(C)C)C(C)C)=C2C)cc1 (stereo unspecified)	-29%	-21%
Cc1[nH]c2c([N+](=O)[O-])cccc2c1C	-7%	-15%
Cn1c(=O)c2c(ncn2CCOc2ccc(F)cc2)n(C)c1=O	9%	3%
COc1ccc(C(=O)CSc2ccc(-c3ccc(C)cc3)nn2)cc1	-13%	-5%
COc1cc(OC)nc(C(NC(=O)C2CCN(Cc3ccc(N(C)C)cc3)CC2)c2ccc(F)cc2)n1 (stereo unspecified)	-21%	?
NC(=O)c1ccccc1NC(=O)CSc1nc2c(c(=O)[nH]1)CCCC2	-19%	i

Bioassay records from PubChem BioAssay.
